Rango-impB inh = inhibitors of Rango-importin beta complex formation; Q14974; Rango CFP/YFP FRET sensor + importin beta, 45 min; Potency, µM (top dose mostly 92.2 µM), for inactives: at the highest dose inhibition of complex formation; 0.031% of 340,000 active; AID 540263; active = rising FRET ratio curve, often small or poorly fitted; inconclusive = mostly compound fluorescence or quenching in the first reads; inactive = flat curves in all reads;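 note: potency is the fitted concentration of half-maximal effect; 0% = DMSO wells and 100% = buffer wells lacking importin beta; nearly all actives have a fitted effect of over 15% in size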
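FRET biosensor Rango (snurportin 1 IBB between N-terminal EYFP and C-terminal Cerulean), 50 nM in PBS/1 mM DTT/0.02% Tween-20/0.1% BSA, preincubated 5 min RT with compound; 0.125 microM importin beta added, 45 min RT, CFP/YFP FRET ratio read.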
miR-21 FLuc = miR-21 reporter, rising signal. HeLa miR-21 FLuc reporter, luciferase, 48 h. Potency, µM (doses to about 38.3 µM), without a hit: top-dose reporter change, positive = more light. 340,000 tested, under 10 active. AID 2288; active = well fitted rising curve with a large enough effect; inconclusive = small, poorly fitted or top-dose-only effect; inactive = no such curve, though single readings can be large or run the other way;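 note: % of control where 0% means no effect; miR-21 action dims this reporter so a rising signal means less miR-21 action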
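Compounds were titrated across several concentrations (up to approximately 40 uM) and incubated 48 hours with HeLa miR-21-FLuc reporter cells (miR-21 target sequence downstream of FLuc, endogenous miR-21). Readout was firefly luciferase luminescence after lytic detection reagent.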
Rango dissoc inh = inhibitors of RanGTP-induced Rango-importin beta complex dissociation. Biochemical FRET Rango-importin beta, RanGTP-induced dissociation. Potency, µM (top dose mostly 46.1 µM), without a hit: top-dose activity change, negative = inhibition. AID 540253. O95149+P62826. 0.071% of 340,000 active; active means falling FRET ratio curve, often poorly fitted, with flat reads before Ran was added; inconclusive means other falling curves, or compound fluorescence or quenching; inactive means flat or rising ratio curve;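 note: potency is the fitted concentration of half-maximal effect; % of control where 0% means no effect; nearly all actives have a fitted effect of over 45% in size; -100% = wells without RanGTP and RCC1; the record marks most hits as doubtful in a second field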
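Compounds sat 5 min at room temperature with 0.1 uM Rango biosensor plus 0.25 uM importin beta, then FRET pre-read. RanGTP-RCC1 (0.6 uM Ran, 2mM GTP, 0.2 uM RCC1) added for 45 min, and the CFP/YFP post-read measured blocked complex dissociation.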
GLA inh pH 4.5 = alpha-galactosidase A (human) inhibition, pH 4.5; P06280; purified enzyme, 4-MU-alpha-Gal fluorescence, pH 4.5; activity change, negative = inhibition, % at 105 µM; 230,000 tested, under 10 active; AID 1467; inconclusive = small, poorly fitted or top-dose-only inhibition, or a rising curve; inactive = flat fitted curve, though single readings scatter; no compound was filed as active;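 note: 0% = full activity with enzyme and -100% = basal without enzyme; dose as in the result columns while the protocol names 77 µM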
Target sequence (P06280 whole entry, looked up): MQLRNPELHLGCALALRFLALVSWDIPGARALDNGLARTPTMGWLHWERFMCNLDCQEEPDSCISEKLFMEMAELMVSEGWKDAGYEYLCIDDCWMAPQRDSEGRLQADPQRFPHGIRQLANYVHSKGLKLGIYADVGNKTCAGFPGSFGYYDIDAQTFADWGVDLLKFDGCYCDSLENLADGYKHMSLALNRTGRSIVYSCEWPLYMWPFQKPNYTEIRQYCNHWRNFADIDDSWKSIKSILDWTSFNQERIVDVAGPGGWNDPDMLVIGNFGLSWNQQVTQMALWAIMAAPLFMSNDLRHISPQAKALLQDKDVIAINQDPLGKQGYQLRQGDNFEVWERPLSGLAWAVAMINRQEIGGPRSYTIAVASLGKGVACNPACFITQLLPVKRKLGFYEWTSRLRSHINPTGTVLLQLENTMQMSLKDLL
* = called active by the depositor; ? = inconclusive; nt = no result given; & = joins results of further samples. Not all compounds are listed; rates above refer to the full screens.

miR-21 FLuc | Rango dissoc inh | Rango-impB inh | GLA inh pH 4.5 | SMILES
5% | -2% | -1.8% | -8 | COc1ccccc1C(=O)N(CCN(C)C)c1nc2cc(C)cc(C)c2s1
-5% | 11% | 0.1% | nt | O=C1NC(=O)/C(=C\c2cn(CC(=O)N3CCOCC3)c3ccccc23)S1
-7% | -6% | -0.1% | -20 | CCc1ccc(NC(=O)C2CCN(S(=O)(=O)c3c(C)[nH]c(=O)[nH]c3=O)CC2)cc1
-2% | -5% | -2.4% | -4 | CCOc1cc(S(=O)(=O)N2CCN(CC)CC2)ccc1Cl
-3% | -9% | -4.5% | nt | COc1ccc(CN2CCNC(=O)C2CC(=O)N(C)Cc2ccon2)c(F)c1 (stereo not given)
-6% | -3% | -3.0% | 1 | O=c1[nH]c2ccc(Cl)cc2c(=O)n1Cc1ccco1
0% | 6% | -1.8% | nt | Cc1ccc(-c2nnn(CC(=O)N(c3cccc(F)c3)C(C(=O)NC3CCCC3)c3ccncc3)n2)o1 (stereo not given)
nt | 9% | 0.6% | nt | O=C(COC(=O)c1ccco1)Nc1ccc2[nH]c(=O)[nH]c2c1
-53% | -3% | -2.2% | -3 | C=CCOn1c(=O)c(-c2ccc(OC)cc2)[n+]([O-])c2ccccc21
nt | 7% | -5.1% | nt | COc1ccc(Cl)cc1NC(=O)CN1C(=O)NC(Cc2c[nH]c3ccccc23)C1=O (stereo not given)
-2% | 5% | 0.0% | nt | Cc1ccc(C(=O)NCCN2CCOCC2)cc1C
3% | -10% | -4.4% | -9 | COc1ccc(NC(=O)CN2CCN(c3ccccc3Cl)CC2)cc1
-8% | 17% | 0.9% | nt | CCN(Cc1ccncc1)C(=O)c1cc(COc2ccc(F)cc2Cl)on1
7% | 20% | 0.0% | -2 | Cc1ccc([N+](=O)[O-])c(OCCn2cnc3ccccc32)c1
6% | 1% | -1.4% | 1 | O=C(CN1CCN(C/C=C/c2ccccc2)CC1)Nc1cc([N+](=O)[O-])ccc1Cl
-21% | 11% | 1.9% | 0 | CSc1nc(-c2ccccc2)nn1C(=O)c1ccco1
15% | -23% | 0.4% | nt | CC(CCN1C(Nc2ccccc2)=NC[C@@H]1Cc1ccccc1)c1ccccc1 (stereo not given in full)
nt | 5% | 2.9% | nt | COc1ccc(NC(=O)c2cccc(S(=O)(=O)N3CCCC3)c2)cc1OC
? | ? | -3.4% | -6 | Cc1ccc(C)c(-n2c3nc(=O)[nH]c(=O)c-3cc3cc([N+](=O)[O-])ccc32)c1
nt | 0% | 0.5% | nt | CS(=O)(=O)N1CCC(Oc2cccc(C(=O)NCCCC3CCCC3)c2)CC1
1% | nt | nt | 1 | C#CCOCCOCCOCCNc1nc(N2CCN(C(=O)[C@H](CCCCN)n3cc([C@@H](N)CO)nn3)CC2)nc(N2CCN(C(=O)[C@H](Cc3cc4ccccc4[nH]3)n3cc([C@@H](N)Cc4ccc(O)cc4)nn3)CC2)n1
-1% | -10% | 2.4% | nt | CCN(CC)CCCNC(=O)c1ccc(C)c(NC(=O)C2=C(C)OCCS2)c1
-9% | -10% | -0.3% | 1 | Cc1ccc(CNc2cnn(C34CC5CC(CC(C5)C3)C4)c(=O)c2Cl)cc1
-3% | 22% | -0.2% | nt | COc1ccccc1N1C(=O)CSC1=S
nt | 2% | ? | nt | Cc1cccn2c(=O)nc(SCC(=O)Nc3ccc4c(c3)OCCO4)nc12
nt | 1% | 6.2% | nt | CC(C(=O)Nc1ccc(S(=O)(=O)N2CCCC2)cc1)N(C)CC(=O)Nc1cccc(F)c1 (stereo not given)
nt | -8% | -2.8% | nt | CCCN(CC(=O)Nc1ccccc1C)C(=O)c1ccc(C2SCCS2)cc1
-8% | 3% | -2.0% | -1 | Cc1ccc(C(=O)NC(Cc2c[nH]c3ccccc23)C(=O)O)o1 (stereo not given)
1% | 3% | -0.9% | 4 | CCOC(=O)c1ccc(N2C(=O)CC(Sc3nnc(C)s3)C2=O)cc1 (stereo not given)
-2% | 2% | 0.6% | -1 | Cc1cccn2cc(CCNC(=O)Cc3cccs3)nc12

Single values from the entries so far.
In GLA inh pH 4.5, `Cc1ccc(C)c(-n2c3nc(=O)[nH]c(=O)c-3cc3cc([N+](=O)[O-])ccc32)c1` has the entry -6
In Rango-impB inh, `Cc1cccn2cc(CCNC(=O)Cc3cccs3)nc12` has the entry 0.6%

Single records (already shown).
Shown for Cc1ccc(C(=O)NC(Cc2c[nH]c3ccccc23)C(=O)O)o1 (stereo not given) → miR-21 FLuc: -8%; Rango dissoc inh: 3%; Rango-impB inh: -2.0%; GLA inh pH 4.5: -1
Shown for CCN(Cc1ccncc1)C(=O)c1cc(COc2ccc(F)cc2Cl)on1 → miR-21 FLuc: -8%; Rango dissoc inh: 17%; Rango-impB inh: 0.9%; GLA inh pH 4.5: nt

Additional records follow:
miR-21 FLuc | Rango dissoc inh | Rango-impB inh | GLA inh pH 4.5 | SMILES
-12% | -11% | -1.4% | -3 | Nc1cc2c(cc1C(=O)c1ccc(Cl)cc1)OCCO2
0% | -11% | 3.1% | 5 | Brc1cnc2nc(SC/C=C/c3ccccc3)[nH]c2c1
-48% | -7% | -3.6% | 4 | COc1ccccc1-c1noc(-c2cccnc2)n1
0% | -8% | -0.1% | nt | COc1ccc(NC(=O)NC(C)c2ccc3c(c2)OCO3)cc1OC (stereo not given)
0% | -9% | 3.9% | 6 | O=C(O)CN(c1cccc(C(F)(F)F)c1)S(=O)(=O)c1ccccc1
1% | nt | nt | -5 | O=c1c2cnn(-c3ccc(F)cc3)c2ncn1Cc1ccccn1
-7% | 17% | -7.4% | -4 | CCOc1ccccc1C(=O)NCCCn1ccnc1
3% | ? | 0.8% | nt | COc1ccccc1CNC(=O)C1CCN(S(=O)(=O)c2ccc(N3CCCC3=O)cc2)CC1
-2% | -7% | 5.2% | 13 | CC1(C(=O)N(CC(=O)NC2CCCC2)Cc2ccco2)CC(=O)N=C2C=CC=CN21 (stereo not given)
-14% | -6% | -3.6% | 0 | COc1cc2c(cc1OC)CN(Cc1cc(=O)oc3cc(C)c(Cl)cc13)CC2
0% | 4% | -7.5% | nt | CCC(C)NC(=O)[C@@H]1CCCN1C(=O)C1CCN(S(=O)(=O)c2ccc(C)cc2)CC1 (stereo not given in full)
1% | -19% | 0.1% | nt | COc1ccc(C(=O)NCCc2ccccc2F)cc1OC1CCN(C(C)=O)CC1
-2% | 3% | -7.4% | -2 | COc1cccc(C2C(=O)N(C3CCCCC3)CC(=O)N2Cc2ccc(F)cc2)c1 (stereo not given)
0% | -9% | 0.7% | -5 | COc1cc(/C=N/NC(=O)c2cccc([N+](=O)[O-])c2)cc(OC)c1O
-24% | -15% | -5.9% | 3 | CCn1c(=N)n(CC(=O)c2ccc(OC)cc2)c2ccccc21
23% | 9% | ? | -2 | CC(=O)OCCCNc1cc(SCc2ccco2)c2nonc2c1[N+](=O)[O-]
-2% | 10% | 1.1% | nt | COc1ccc(C(=O)COC(=O)C(C)N2C(=O)C3C4CCC(C4)C3C2=O)cc1 (stereo not given)
nt | 5% | 4.9% | nt | Cc1ccc(NC(=O)CN(C)C(=O)C(C)OC(=O)CNC(=O)c2ccc(Cl)c([N+](=O)[O-])c2)cc1 (stereo not given)
1% | 24% | 0.1% | 9 | CNC(=S)NC(CC(=O)OC)c1ccc2c(c1)OCO2 (stereo not given)
-33% | ? | ? | -15 | Oc1c(C=NCc2ccncc2)sc2ccccc12
-16% | 0% | 4.4% | -5 | CCN=C(NC#N)SCc1c(F)cccc1Cl
-40% | nt | nt | -4 | Cc1cc(=O)c2cc3nc(-c4cccnc4)oc3c(Br)c2o1
nt | -6% | 4.5% | nt | COc1cc(OC)cc(-c2sc3ccc(OC)cc3c2C#CCCO)c1
-10% | -8% | -0.7% | -4 | COc1ccccc1N1CCN(C/C(O)=C(\C#N)c2nc(-c3ccccc3)cs2)CC1
3% | ? | -1.7% | nt | Cc1cccc(C)c1NC(=O)CNC(=O)c1cn(-c2ccccc2)nc1-c1ccccc1
-4% | 4% | -1.9% | -7 | COc1cc(NS(=O)(=O)c2ccc(NC(=S)NC(=O)C(C)(C)C)cc2)nc(OC)n1
-3% | 10% | -2.3% | 5 | Cc1ccc(NC(=O)N2CCCC2C(=O)NCCC2=CCCCC2)cc1 (stereo not given)
-17% | ? | 3.0% | 6 | COc1ccc(Cn2c(C)nnc2-c2cnn(C)c2N)cc1OC
-61% | 22% | 2.8% | -9 | Cc1ccc2c(c1)NC(=O)CC(c1ccccc1)=N2
-2% | -12% | -3.4% | nt | Cc1ccc(C(=O)OCC(=O)NC2CCCCC2)o1
3% | 1% | -0.1% | -7 | CC1=NOC(=O)/C1=C\c1ccc2c(c1)OCO2
1% | 4% | 0.8% | 14 | CCCNC(=O)c1ccc(CN2CCOCC2)cc1
6% | 5% | 0.3% | -3 | NC(=NC(=O)c1ccccc1)N1N=CCC1c1ccccc1 (stereo not given)
-1% | 3% | 0.7% | nt | NC(=O)c1cc2ccccc2o/c1=N\NC(=O)c1ccc(F)cc1
-35% | -5% | -0.6% | nt | Cc1noc(C)c1C(=O)Nc1ccc2ccccc2c1
-1% | 9% | 2.6% | nt | CCOc1ccc(S(=O)(=O)N2CCCC(C(=O)Nc3cc(C)cc(C)c3)C2)cc1 (stereo not given)
2% | -12% | -0.2% | nt | COc1ccc(NC(=O)CN(C)C(=O)C23CC4CC(CC(C4)C2)C3)cc1
-23% | -6% | 3.0% | 4 | COc1cccc(C(=O)N(Cc2cc3cc(C)ccc3[nH]c2=O)CC2CCCO2)c1 (stereo not given)
-27% | 2% | 7.9% | -7 | Cn1cnnc1SCCOc1ccc(Cl)cc1
2% | -12% | 2.1% | -1 | NNC(=O)c1ccc(-c2cccc([N+](=O)[O-])c2)o1
24% | 21%&5% | 3.9%&1.9% | 4 | COCC(C)n1c(-c2ccc3c(c2)NC(=O)CO3)csc1=Nc1ccc(OC(F)F)cc1 (stereo not given)
9% | 10% | -0.7% | 5 | CCOc1cc(C(=O)N/N=C\c2cn(CC)nc2C)cc(OCC)c1OCC
15% | nt | nt | 0 | COc1cc(S(=O)(=O)Nc2cccc(C)c2)ccc1N=Cc1c(C)[nH]n(-c2ccccc2)c1=O
nt | 4% | -4.1% | nt | CCC(C)c1ccccc1N1CC(C(=O)N(C)CC(=O)Nc2cccc(F)c2)CC1=O (stereo not given)
13% | 1% | 1.6% | 3 | O=C(CN1C(=O)c2ccccc2S1(=O)=O)c1ccc(O)c(O)c1
-4% | 0% | -1.9% | -16 | COc1ccc(-c2csc(NC(=O)c3cc(-c4cccs4)nc4ccccc34)n2)c(OC)c1
nt | 10% | 0.2% | nt | CCc1noc(C)c1C(=O)N1CCN(S(=O)(=O)c2ccc(Cl)cc2)CC1
-5% | -1% | 0.1% | -2 | Cc1ccc(S(=O)(=O)N2CCN(C(=O)N3CCOCC3)C2c2ccc(N(C)C)cc2)cc1 (stereo not given)
0% | 0% | -2.0% | -16 | Cc1c(C)[n+](=O)c2c(n1[O-])CCC2
-3% | 1% | -0.4% | 0 | COc1ccccc1NC(=S)N(CCc1nc2cc(C)c(C)cc2[nH]1)Cc1cccnc1
-16% | -10% | 2.8% | 1 | Cc1cc(NC(=O)c2ccccc2F)n(-c2nc3ccccc3[nH]2)n1
nt | -7% | 1.7% | nt | CC(=O)Nc1nc2c(F)cccc2s1
17% | -7% | 7.9% | 5 | CC(=O)N1CCN(c2ccc(NC(=O)COc3ccc(Cl)cc3Cl)cc2)CC1
-1% | ? | ? | 2 | Cn1c(=O)c2[nH]c(=O)cnc2n(C)c1=S
-5% | ? | -2.0% | nt | Cc1cc(C(=O)NNC(=O)COc2c(C)cc(Br)cc2C)n[nH]1
8% | ? | ? | ? | CC(=O)C1=C(C)NC(SCC(=O)c2ccc(Cl)c(Cl)c2)=C(C#N)C1c1ccco1 (stereo not given)
-8% | -7% | 4.3% | 4 | Cc1ccc(C(=O)N/C(=C\c2cccs2)C(=O)NCCCn2ccnc2)cc1C
-3% | -2% | -0.6% | -6 | Cc1c(CN2CCC(CO)(CCOc3ccccc3)CC2)c(=O)n(-c2ccccc2)n1C
-9% | 3% | 3.1% | nt | CC(C)c1ccc(NS(=O)(=O)c2cccc3cccnc23)cc1
-1% | 23% | -0.5% | 8 | O=C(NNC(=O)c1cccnc1)Nc1ccccc1

Bioassay records: PubChem, National Center for Advancing Translational Sciences (NCATS)
